Assay outcomes (PubChem)
hNpr1 antagonist: blocks ANP-stimulated signaling of human Npr1 receptor; P16066; HEK293 hNpr1 GloSensor cGMP, ANP-stimulated luminescence; Potency, µM (series often up to 46.3 µM), without a hit: at the highest dose activity change, negative = inhibition, hits mostly inhibitors; 1.6% of 76,000 active; active = well fitted inhibition curve with a large enough effect; inconclusive = small, poorly fitted or top-dose-only effect; inactive = no such curve, though single readings can be large or run the other way;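 also: nearly all actives have a fitted effect of over 60% in size; nearly all hits also lower the signal before the agonist is added; a reference antagonist and vehicle were the controls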
Target sequence (P16066 whole entry, looked up): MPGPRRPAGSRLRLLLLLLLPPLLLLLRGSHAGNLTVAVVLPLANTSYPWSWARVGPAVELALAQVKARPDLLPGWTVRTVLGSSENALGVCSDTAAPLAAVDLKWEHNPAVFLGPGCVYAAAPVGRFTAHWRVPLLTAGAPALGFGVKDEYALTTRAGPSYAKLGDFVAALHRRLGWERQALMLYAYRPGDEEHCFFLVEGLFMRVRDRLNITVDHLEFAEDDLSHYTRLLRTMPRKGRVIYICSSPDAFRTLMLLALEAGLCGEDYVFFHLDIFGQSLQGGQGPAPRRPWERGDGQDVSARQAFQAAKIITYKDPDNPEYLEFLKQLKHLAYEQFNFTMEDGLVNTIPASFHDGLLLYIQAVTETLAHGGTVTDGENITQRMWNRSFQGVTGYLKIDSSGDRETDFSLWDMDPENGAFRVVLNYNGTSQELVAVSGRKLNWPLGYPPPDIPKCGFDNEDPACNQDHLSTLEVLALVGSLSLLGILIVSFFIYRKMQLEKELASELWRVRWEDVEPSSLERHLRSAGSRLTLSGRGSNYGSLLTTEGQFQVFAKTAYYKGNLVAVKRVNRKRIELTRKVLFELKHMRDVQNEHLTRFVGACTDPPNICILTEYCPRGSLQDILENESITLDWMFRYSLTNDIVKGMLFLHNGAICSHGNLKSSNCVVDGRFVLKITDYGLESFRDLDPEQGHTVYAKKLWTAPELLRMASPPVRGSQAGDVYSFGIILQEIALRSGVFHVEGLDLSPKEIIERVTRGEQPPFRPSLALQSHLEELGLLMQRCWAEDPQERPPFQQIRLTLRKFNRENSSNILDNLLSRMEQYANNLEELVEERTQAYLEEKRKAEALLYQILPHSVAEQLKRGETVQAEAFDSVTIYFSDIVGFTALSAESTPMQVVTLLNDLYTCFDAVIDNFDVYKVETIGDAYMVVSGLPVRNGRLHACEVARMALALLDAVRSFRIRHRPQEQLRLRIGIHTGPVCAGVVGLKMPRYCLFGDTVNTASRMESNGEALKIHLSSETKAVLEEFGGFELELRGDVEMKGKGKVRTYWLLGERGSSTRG
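Compound pre-incubated 30 min at room temperature on GloSensor-loaded HEK293 cells stably carrying hNpr1 and the pGS-40F cGMP biosensor. Stimulation uses hNppA at 0.1 nM final; luminescence is taken at baseline and 20 min post-agonist.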
* = called active by the depositor; & = joins results of further samples; [ ] = remark or other dose. % is scaled to controls: 0 for no effect and ±100 for the full control effect; potency is read from the fitted curve at half-maximal effect. These rows are one share of the data; the hit share may differ from the screen's.

CNCC(=O)N1CCCC(c2cc(N3CCOCC3)nc(C)n2)C1 (configuration not stated) was read as hNpr1 antagonist 2%.
Screening O=C1CCN(Cc2cccc(F)c2)CCCC(CO)CCN1 (configuration not stated) returned hNpr1 antagonist -1%.
Screening O=C1CCN(S(=O)(=O)c2ccccc2)CCCN(C(=O)C2COc3ccccc3O2)CCN1 (configuration not stated) returned hNpr1 antagonist 1%.
Screening Cc1cccc(C)c1-c1nc(C(=O)NCc2ccc(F)cc2)n2ccccc12 returned hNpr1 antagonist 5%&4%.
`COC[C@@H]1CN(Cc2cnn(C(C)C)c2)C[C@H]1C(=O)NC1CC1` gave hNpr1 antagonist -2%.
C#CCNC(=O)[C@H]1O[C@H](CCN(CCOC)CCOC)CC[C@@H]1O was read as hNpr1 antagonist 6%[70.6 µM].
Screening CC(C)c1nc2c(c(-c3ccc(O)cc3)n1)CN(C(=O)c1ccccc1F)CC2 returned hNpr1 antagonist 0%.
Screening O=C(NCc1cccc(Cl)c1)C1CCN(C(=O)c2ncn3c2COC(c2ccccc2)C3)CC1 (configuration not stated) returned hNpr1 antagonist -14%.
Screening CCO[C@H]1CN(C(=O)Cn2ncc3ccccc3c2=O)C[C@@H]1O returned hNpr1 antagonist 0%.
COc1ccc(NC(=O)NC[C@H]2O[C@@H]3C[C@@H](CC(=O)NCc4cnn(C)c4)O[C@@H]3[C@@H]2O)cc1 was read as hNpr1 antagonist 7%.
For Cc1ccc(N2Cc3c(ncnc3N3CCC(O)CC3)CN(C)C2=O)cc1 the results were hNpr1 antagonist -4%.
`CCc1nnc(CNC(=O)c2cc(S(N)(=O)=O)ccc2F)s1` gave hNpr1 antagonist 0%.
For COCC(=O)N1CCN2C(=O)N(C)C[C@H]2C1 the results were hNpr1 antagonist 1%[70.6 µM].
`CN1CCC2(C1)CN(CC1CCOCC1)c1ccc(C(=O)NCc3ccccc3)cc12` (configuration not stated) gave hNpr1 antagonist 3%[70.6 µM].
`COCCCn1c(C)cnc1C1CCN(S(=O)(=O)Cc2ccccc2)C1` (configuration not stated) gave hNpr1 antagonist 4%.
`OCC1(CCCc2ccccc2)CCN(Cc2cccc(-n3cccn3)c2)CC1` gave hNpr1 antagonist 0%.
Screening CCN1C(=O)Cc2ccccc2C1C(=O)NCc1ccc(OC)cc1 (configuration not stated) returned hNpr1 antagonist 2%.
Screening Cc1ccc(C2Cn3nnc(C(=O)NCc4ccc(F)cc4Cl)c3CO2)cc1 (configuration not stated) returned hNpr1 antagonist -17%.
For O=C(Nc1ccc(F)c(Cl)c1)c1cc2n(n1)CC(c1ccc(Cl)cc1)OC2 (configuration not stated) the results were hNpr1 antagonist inconclusive.
`CCc1ccc(C(=O)N2CCCN(S(C)(=O)=O)c3ccccc32)cc1` gave hNpr1 antagonist -2%.

Ordered by formula weight (falling): part of the list above
Screening O=C(NCc1cccc(Cl)c1)C1CCN(C(=O)c2ncn3c2COC(c2ccccc2)C3)CC1 (configuration not stated) returned hNpr1 antagonist -14%.
COc1ccc(NC(=O)NC[C@H]2O[C@@H]3C[C@@H](CC(=O)NCc4cnn(C)c4)O[C@@H]3[C@@H]2O)cc1 was read as hNpr1 antagonist 7%.
`CN1CCC2(C1)CN(CC1CCOCC1)c1ccc(C(=O)NCc3ccccc3)cc12` (configuration not stated) gave hNpr1 antagonist 3%[70.6 µM].
Screening Cc1ccc(C2Cn3nnc(C(=O)NCc4ccc(F)cc4Cl)c3CO2)cc1 (configuration not stated) returned hNpr1 antagonist -17%.
`OCC1(CCCc2ccccc2)CCN(Cc2cccc(-n3cccn3)c2)CC1` gave hNpr1 antagonist 0%.
`COCCCn1c(C)cnc1C1CCN(S(=O)(=O)Cc2ccccc2)C1` (configuration not stated) gave hNpr1 antagonist 4%.
For Cc1ccc(N2Cc3c(ncnc3N3CCC(O)CC3)CN(C)C2=O)cc1 the results were hNpr1 antagonist -4%.
`CCc1nnc(CNC(=O)c2cc(S(N)(=O)=O)ccc2F)s1` gave hNpr1 antagonist 0%.
Screening CCN1C(=O)Cc2ccccc2C1C(=O)NCc1ccc(OC)cc1 (configuration not stated) returned hNpr1 antagonist 2%.
Screening CCO[C@H]1CN(C(=O)Cn2ncc3ccccc3c2=O)C[C@@H]1O returned hNpr1 antagonist 0%.
For COCC(=O)N1CCN2C(=O)N(C)C[C@H]2C1 the results were hNpr1 antagonist 1%[70.6 µM].

The list goes on.
Screening COc1cc(-c2onc(C)c2C(=O)NCCCSC)cc(OC)c1OC returned hNpr1 antagonist -27%.
Screening Cc1ccc([S+](=O)([O-])N2CCn3c(nnc3-c3ccccc3)C2)cc1 returned hNpr1 antagonist 4%.
`Cc1ccsc1C(=O)N1CC(Oc2cccc(-c3nc(-c4ccccc4)no3)c2)C1` gave hNpr1 antagonist -4%.
Screening CCS(=O)(=O)Nc1ccc(C)n(CC(=O)NC(C)c2ccccc2)c1=O (configuration not stated) returned hNpr1 antagonist 8%.
`Cc1ccc(-c2cc(N3CCCN(C(=O)COc4ccccc4)CC3)n[nH]2)cc1C` gave hNpr1 antagonist 4%.
O=C(Cn1nc2n(c1=O)CCCCC2)NCc1ccc(F)cc1 was read as hNpr1 antagonist -21%.
For CN1C(=O)C(CC(=O)N2CCC(N)CC2)(Cc2ccccc2)c2ccccc21 (configuration not stated) the results were hNpr1 antagonist 1%.
CC[C@H]1CN(C(=O)C2CC2)CC[C@H]1CC(=O)N1CCC(C(=O)OC)CC1 was read as hNpr1 antagonist 4%[70.6 µM].
Screening CCCN1C[C@@H](CO)[C@H](c2nc(CCOC)no2)C1 returned hNpr1 antagonist -1%.
For O=C1CCN(S(=O)(=O)c2ccc3c(c2)CCC3)CCCC(C(=O)NCc2ccccc2)CCN1 (configuration not stated) the results were hNpr1 antagonist 3%.
CC(C)N1C(=O)C2(CCCC2)C1C(=O)NC1CCCCC1 (configuration not stated) was read as hNpr1 antagonist 0%.
For Cc1cccc(C(=O)NCC2Cn3cccc3C(=O)N2Cc2ccccc2)c1 (configuration not stated) the results were hNpr1 antagonist -12%.
COc1ccccc1CC(=O)N1CCCc2ncc(C(=O)Nc3ccc(OC)c(OC)c3)cc21 was read as hNpr1 antagonist 0%.
For O=C(Cc1ccccc1)NCC1CN(C(=O)Cc2cccc(Oc3ccccc3)c2)CC12CN(c1ccccc1)C2 (configuration not stated) the results were hNpr1 antagonist -17%.
O=C(CN1C(=O)COc2ccc(C(=O)COc3cccc(F)c3)cc21)NCc1ccc(F)cc1 was read as hNpr1 antagonist -2%.
Screening O=C(NCC1CCOCC1)C1CC(=O)N(c2n[nH]c3cc(Br)ccc23)C1 (configuration not stated) returned hNpr1 antagonist 2%.
For Cc1noc(C)c1CC(=O)N1CCCN(C)c2ccccc21 the results were hNpr1 antagonist 1%.
COc1ccc(CNC[C@H]2Cn3c(-c4ccc(Cl)cc4)cnc3CO2)cn1 was read as hNpr1 antagonist -20%[70.6 µM].
Screening O=C(NCCC1CCN(C(=O)Nc2cccc(F)c2)CC1)c1ccco1 returned hNpr1 antagonist -2%.
`CN1c2cc(C(=O)N3CCc4ccccc4C3)ccc2C(=O)N2CCCC21` (configuration not stated) gave hNpr1 antagonist 2%.
Screening Cn1cc(-c2cnc3[nH]cc(CC(=O)Nc4ccc(C(F)(F)F)cc4)c3c2)cn1 returned hNpr1 antagonist inconclusive.
`OCc1cccc(-c2cc(C3=CCOCC3)c3cncn3c2)c1` gave hNpr1 antagonist -3%[70.6 µM].
CCC1(CO)CCCN(CCCOc2ccc(C(N)=O)cc2)C1 (configuration not stated) was read as hNpr1 antagonist 0%.
Screening Cc1cccc(N2CCN(C(=O)C3CCCN(C(=O)c4cccnc4)CCC(=O)NCC3)CC2)c1 (configuration not stated) returned hNpr1 antagonist 7%.
Screening O[C@H]1[C@H](NCc2ccccc2)[C@H]2CO[C@H](O2)[C@@H]1N1CCC(Cc2ccccc2)CC1 returned hNpr1 antagonist 1%[70.6 µM].
O=C(c1ccc2[nH]ccc2c1)N1CCC2(CC1)Nc1ccccc1NC2=O was read as hNpr1 antagonist -10%.
For CC(=O)Nc1ccc(CN2C(=O)OC3(CCN(C(=O)c4cccc(C#N)c4)CC3)C2(C)c2ccccc2)cc1 (configuration not stated) the results were hNpr1 antagonist -6%.
COc1ccc(C(=O)N2CCC(N3C(=O)CCC3C(=O)NCc3ccccc3)CC2)cc1 (configuration not stated) was read as hNpr1 antagonist 0%.
`Cc1cc(=O)n(CC(=O)NC(C)CCc2ccccc2)c(N2CCc3ccccc3C2)n1` (configuration not stated) gave hNpr1 antagonist -24%.
O=C(c1ccoc1)N1CCC2(CC1)CN(Cc1ccccc1)CC2CO (configuration not stated) was read as hNpr1 antagonist -8%.
`Cc1nnc2ccc(N3CCOCC3)nn12` gave hNpr1 antagonist 2%.
For NC(=O)[C@H](Cc1ccc(O)cc1)NC(=O)C1=C[C@@H](NS(=O)(=O)c2cccs2)[C@@H](O)[C@H](O)C1 the results were hNpr1 antagonist 3%.
`CCCOCCc1nc2c([nH]1)CC(C)(C)CNC2=O` gave hNpr1 antagonist -3%.
Cc1noc2c(NC3CCOCC3)cc(-c3ccccn3)nc12 was read as hNpr1 antagonist 1%[70.6 µM].
`Cc1ccccc1CNC(=O)c1ccc2c(c1)C(O)CCCCCN2C` (configuration not stated) gave hNpr1 antagonist -4%.
`O=C(NC1CCN(c2cc(-c3cccs3)[nH]n2)C1)c1ccccc1Cl` (configuration not stated) gave hNpr1 antagonist inconclusive.
`COc1ccc(C(=O)NCCn2cccc2-c2nc(-c3ccccc3)no2)cc1` gave hNpr1 antagonist inconclusive.
Cc1cc(C(=O)NC2CC(c3cc(=O)[nH]cn3)C2)cc(S(N)(=O)=O)c1C (configuration not stated) was read as hNpr1 antagonist -1%.
COCC(=O)N[C@@H]1CN(Cc2ccc(C#N)cc2)CC[C@@H]1c1nc(C)no1 was read as hNpr1 antagonist 0%.
`Cc1ccc(S(=O)(=O)Cc2noc([C@@H]3C[C@@H](O)CN3C(C)C)n2)cc1` gave hNpr1 antagonist 10%[70.6 µM].
`COc1cccc(-c2cc3c(ccn3C)c(C(=O)NCCc3cnc[nH]3)n2)c1OC` gave hNpr1 antagonist 0%[70.6 µM].
For CC1CCC(NC(=O)c2noc(-c3ccc(C#N)cc3)n2)CC1 (configuration not stated) the results were hNpr1 antagonist -2%.
Screening O=C(NCc1ccccn1)C1CCN(C(=O)N2CC3CC(C2)[C@H]2CCCC(=O)N2C3)CC1 (some centres not stated) returned hNpr1 antagonist -4%.
`CNC(=O)c1cccc(NC(=O)c2nc(C(O)c3ccccc3F)oc2C)c1` (configuration not stated) gave hNpr1 antagonist 35µM*.
`CCn1c(CO)nnc1C1CC(NC(=O)CCCc2ccc(F)cc2)C1` (configuration not stated) gave hNpr1 antagonist -5%.
`Cc1ccc(S(=O)(=O)Nc2ccc3c(c2)CN(CCc2ccc(F)cc2)C(=O)C(C)O3)cc1F` (configuration not stated) gave hNpr1 antagonist -18%.
Cc1ccccc1CC(=O)N1CCC(n2cc(-c3nc(-c4ccccc4)no3)nn2)CC1 was read as hNpr1 antagonist 0%.
`CSCC(=O)N(Cc1ccncc1)C1CCN(C)CC1` gave hNpr1 antagonist 7%.
Screening CN1C(=O)c2cccn2CC1C(=O)N1CCCCC1 (configuration not stated) returned hNpr1 antagonist -9%.
Screening COc1ccccc1Cn1c(-c2ccccc2)nc(C)c(CCO)c1=O returned hNpr1 antagonist -1%.
Screening COC1C(=O)N(C2CCN(C(=O)Cc3cccnc3)CC2)C12CCOCC2 (configuration not stated) returned hNpr1 antagonist 3%.
Screening CC(C)N1C(=O)C2(CCCCC2)C1C(=O)N1CCCCC1 (configuration not stated) returned hNpr1 antagonist 0%.
CCc1noc(-c2cn(C3CCN(C(=O)c4cccc(C#N)c4)CC3)nn2)n1 was read as hNpr1 antagonist 14%.
`Cc1noc(-c2ccn3c(CNC(=O)CCC4CCCC4)nnc3c2)n1` gave hNpr1 antagonist 5%.
`CCCCNC(=O)CC(c1cccc([N+](=O)[O-])c1)c1c[nH]c2ccccc12` (configuration not stated) gave hNpr1 antagonist -18%.
For O=C1CCN(C(=O)[C@H](Cc2ccccc2)NC(=O)C2CCC2)CCCOCCN1 the results were hNpr1 antagonist 10%.
Screening Cc1noc2ncnc(N3CCN(Cc4ccc(F)c(F)c4)C(CCO)C3)c12 (configuration not stated) returned hNpr1 antagonist -15%.
CCOC(=O)c1cn(C2CN(S(=O)(=O)c3ccc(F)cc3F)C2)nn1 was read as hNpr1 antagonist -1%.
Cc1ccccc1C(=O)N1CCC2(CC1)NC(=O)N(c1ccccc1)N2 was read as hNpr1 antagonist -7%.
`CN(C)CCNc1cc(-c2ccc3ccccc3n2)c2cc[nH]c2n1` gave hNpr1 antagonist -2%.
For Cc1ccc2c(n1)N(C)[C@H](CO)CCN(Cc1cn(C)c3ccccc13)C2 the results were hNpr1 antagonist -15%[70.6 µM].
`O=C1CO[C@H]2CCN(CCCc3ccccc3)CC[C@@H]2N1c1ccccc1` gave hNpr1 antagonist -26%[70.6 µM].
Screening COc1cc(OC)cc(C(=O)N2CCC(c3n[nH]c(=O)n3-c3ccc(C)cc3)CC2)c1 returned hNpr1 antagonist 13%.
Screening COc1ccc(CN2C=C(C(=O)OCc3nc(-c4cccc(F)c4)no3)C(C)=NS2(=O)=O)cc1 returned hNpr1 antagonist inconclusive.
COCC1CN(C)CC12CCN(Cc1ccsc1)CC2 (configuration not stated) was read as hNpr1 antagonist 3%.
Screening Cc1ccccc1NC(=O)CN1C(=O)NC2(CCOCC2)C1=O returned hNpr1 antagonist 17%.
For CCn1c(C2CCNCC2)nn(Cc2cnn(-c3ccccc3F)c2)c1=O the results were hNpr1 antagonist 9%.
